Screens: PubChem BioAssay, ICCB-Longwood Screening Facility, Harvard Medical School
Polio RdRp inh = poliovirus RdRp elongation inhibitors, primary screen, biochemical, fluorescence polarization, total intensity; Genome polyprotein (Poliovirus type 1 (strain Mahoney)), P03300; AID 588519, 2011; % elongation, % (compound at 16.7 µg/mL); hit rate 0.66% among 150,000; poliovirus polymerase elongation; hits give low values; in the data active = % elongation below about 90%; also: some results filed as inactive read as strong as hits
Target sequence (P03300 1749-2209 limits assumed): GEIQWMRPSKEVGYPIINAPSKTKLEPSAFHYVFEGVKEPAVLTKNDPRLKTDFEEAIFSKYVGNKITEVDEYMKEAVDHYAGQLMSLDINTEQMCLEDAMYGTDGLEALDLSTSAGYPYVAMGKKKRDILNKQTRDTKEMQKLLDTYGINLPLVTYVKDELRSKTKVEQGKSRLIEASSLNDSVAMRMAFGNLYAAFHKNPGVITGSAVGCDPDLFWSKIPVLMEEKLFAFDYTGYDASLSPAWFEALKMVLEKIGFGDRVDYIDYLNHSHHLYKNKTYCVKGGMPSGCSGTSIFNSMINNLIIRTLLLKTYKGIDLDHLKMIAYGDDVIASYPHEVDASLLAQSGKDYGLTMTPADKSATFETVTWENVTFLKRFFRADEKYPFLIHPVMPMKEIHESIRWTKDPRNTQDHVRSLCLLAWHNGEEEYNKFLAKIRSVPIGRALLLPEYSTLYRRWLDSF
Polio RdRp inh intensity = further read-out of Polio RdRp inh, marked with its call; % elongation; measured here: total intensity read-out; formula for this scale not given here;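 total fluorescence in place of polarization; lower means less elongation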
Numbers without * were called inactive. Only part of the results is shown. The share of hits here may be higher or lower than overall.

smiles	Polio RdRp inh	Polio RdRp inh intensity
CCN(Cc1ccccc1)c1ncnc2c1cnn2-c1ccc(F)cc1	109	112
COc1ccccc1NC(=O)c1oc2ccccc2c1NC(=O)C(C)C	104	112
Cc1cccc(S(=O)(=O)c2cn(C)c3cc(N4CCN(c5ccccc5)CC4)c(F)cc3c2=O)c1	99	97
COc1ccc(NC(=O)C2CCCN(S(=O)(=O)c3c(C)[nH]c(=O)[nH]c3=O)C2)c(OC)c1 (stereo not given)	105	103
Cc1ccc(OCC(=O)Nc2cc3nn(-c4ccccc4)nc3cc2C)cc1	105	107
CC1(C(=O)NC2CCCCC2)Cc2ccccc2C(=O)N1Cc1ccc(F)cc1 (stereo not given)	110	110
O=C(Nc1ccc2c(c1)N(C1CCCC1)C(=O)c1ccccc1S2)c1cccc(F)c1	110	115
CCOc1ccc(-n2c(-c3ccccc3)c(C)n3c4c(=O)n(C)c(=O)n(C)c4nc23)cc1	109	109
COc1ccc(Cn2ccnc2SCC(=O)Nc2ccc3c(c2)OCCO3)cc1	110	114
Cc1c2cnn(-c3ccccc3)c(=O)c2c(C)n1CC(=O)NCc1ccccc1	113	120
COc1cccc(NC(=O)CSc2nc3ccccc3nc2N2CCOCC2)c1	112	114
Cc1cccc(-c2nc(S(=O)(=O)c3ccccc3)c(N3CCN(c4ccccc4)CC3)o2)c1	104	95
O=C(COc1ccccc1)NCCc1csc(-c2ccc(Cl)cc2)n1	113	111
COc1ccc(-c2nnc(SCC(=O)N3CCC(C)CC3)o2)cc1	110	108
CCc1ccc(NC(=O)Cn2c(=O)n(Cc3nc(C)no3)c(=O)c3cc4c(cc32)OCO4)cc1	114	111
O=C1Cc2cc(S(=O)(=O)Nc3ccc(OC(F)(F)F)cc3)cc3c2N1CCC3	111	95
COc1ccc(C)cc1NC(=O)c1oc2ccc(S(=O)(=O)N3CCCCC3)cc2c1C	109	115
Cc1ccc(C(=O)Nc2nnc(S(=O)(=O)N3c4ccccc4CC3C)s2)cc1 (stereo not given)	114	115
COc1ccc2cc(C(=O)NCc3ccc4c(c3)CCN4C(=O)c3ccc(C)cc3)[nH]c2c1	107	106
CC1CCN(C(=O)c2c(NC(=O)c3ccccc3F)sc3c2CCC(C(C)(C)C)C3)CC1 (stereo not given)	103	105
Cc1cc2oc(C(=O)Nc3ccc(S(=O)(=O)Nc4onc(C)c4C)cc3)cc(=O)c2cc1C	103	106
CCn1c(=N)c(C(=O)NC2CCCC2)cc2c(=O)n3cc(C)ccc3nc21	112	113
CCOC(=O)c1cccc(NC(=O)COc2ccc3c(C)cc(=O)oc3c2)c1	104	112
O=C(CCn1c(=O)c2cccn2c2cccnc21)N1CCN(c2ccccc2F)CC1	103	104
CN1CCN(C(=O)c2ccc3c(c2)N(Cc2cccc(Cl)c2)C(=O)c2ccccc2S3(=O)=O)CC1	103	113
COc1ccc(-c2nc3scc(CCNC(=O)Cc4ccc(F)cc4)n3n2)cc1	111	107
CCc1ccccc1NC(=O)Cn1c(=O)n(CCCS(=O)(=O)C2CCCCC2)c(=O)c2ccccc21	106	103
COc1ccc(NC(=O)C2=CC(c3ccc4c(c3)OCO4)=NS(=O)(=O)N2C)cc1OC	108	107
COc1cccc(OC)c1C(=O)NCCc1csc(-c2ccc(Cl)cc2)n1	111	110
COc1ccc(N(CC(=O)NCc2ccccc2Cl)S(=O)(=O)c2c(C)[nH]c(=O)[nH]c2=O)cc1	101	101
Cc1nc2sc(C(=O)NCc3ccc(Cl)cc3)c(NC(=O)c3ccccc3)c2c(C)c1C	102	106
Cc1ccc(S(=O)(=O)N2CCN(C(=O)c3cc(-c4ccc(Br)cc4)n[nH]3)CC2)c(C)c1	110	113
CCc1cccc(NC(=O)C(CC)n2nc(C)c3sc4ccccc4c3c2=O)c1 (stereo not given)	113	107
CC(=O)Nc1nnc(SCc2cc(=O)c3cc(C)ccc3[nH]2)s1	99	107
O=C(CSc1nc(=O)[nH]c2c1CCCC2)Nc1cc(C(F)(F)F)ccc1Cl	105	103
CCn1cc(C(=O)N2CCN(c3ccc(OC)cc3)CC2)c(=O)c2cc(S(=O)(=O)N(C)C3CCCCC3)ccc21	108	106
O=C(CSc1nnc(-c2ccccc2Br)n1-c1ccccc1)c1ccc(F)cc1	105	103
CCCCN(C(=O)Nc1ccc(Cl)cc1)C1CCN(C(C)=O)CC1	107	107
COc1ccc(CCN2CC(C(=O)NCCc3ccccc3)CC2=O)cc1OC (stereo not given)	113	116
COc1ccc(N(CC(C)C)S(=O)(=O)c2nnc(NC(=O)c3cccs3)s2)cc1	113	117
COc1ccc(-c2ccc(=O)n(CC(=O)Nc3ccc(N(C)C)cc3)n2)cc1	107	104
CCOc1ccc(-n2c(Cc3ccccc3)nnc2SCc2nc(-c3ccccc3C)no2)cc1	103	105
Cc1ccc(CN2COc3ccc4c(-c5ccccc5)cc(=O)oc4c3C2)cc1	105	106
N=c1n(CCN2CCCCC2)c2ccccc2n1CC(O)COc1ccccc1 (stereo not given)	99	96
CCN1c2ccccc2-c2nc(SCC(=O)Nc3ccc(C)c(Cl)c3)ncc2S1(=O)=O	111	120
Cc1ccc(C)c(NC(=O)CSc2nc(-c3ccccc3)c(C#N)c(=O)[nH]2)c1	101	94
CCn1cc2nc(SCc3cc(C)ccc3C)n(Cc3ccc(C)cc3)c(=O)c2n1	105	114
CC(=O)N1c2c(cc(Br)cc2S(=O)(=O)N2CCN(c3cccc(Cl)c3)CC2)CC1C (stereo not given)	104	104
Cc1ccccc1OCC(=O)Nc1nnc(SCc2cc(=O)n3cccc(C)c3n2)s1	110	111
CN(C(=O)CSc1nnc(NC(=O)Nc2ccccc2)s1)c1ccccc1	102	106

Additional compounds.
Value order: Polio RdRp inh, Polio RdRp inh intensity
> Cc1cc(NC(=O)CN(c2cccc(C)c2C)S(=O)(=O)c2ccccc2)ccc1Br
    103, 108
> CCCOc1ccc(C2=NC(c3ccncc3)=Nc3ccc(C)cc3N2)cc1
    108, 110
> CCOC(=O)c1c(C)[nH]c(CCC(=O)NCCCN2CCN(c3ccc(F)cc3)CC2)c1C
    112, 117
> O=C(CC(c1cccs1)N1Cc2ccccc2C1=O)Nc1ccc(F)cc1F (stereo not given)
    103, 104
> COc1cccc(-c2nc3c(c(C)nn3-c3ccccc3)c3cc(OC)c(OC)cc23)c1
    103, 106
> Cc1ccccc1NS(=O)(=O)c1ccc2[nH]cc(C(=O)NC3CCCCC3)c(=O)c2c1
    103, 103
> Cc1ccc(Cl)cc1N1CCN(C(=O)c2ccc(NC(=O)c3nsc4ccccc34)cc2)CC1
    101, 99
> COc1ccc(OC)c(-c2noc(N3CCN(c4cc(Cl)ccc4C)CC3)n2)c1
    109, 103
> Cc1oc(-c2ccccc2)nc1CNS(=O)(=O)c1ccc(Cl)cc1
    107, 107
> Cc1csc2nc(-c3cccc(NC(=O)c4ccc(S(N)(=O)=O)cc4)c3)cn12
    107, 106
> COc1ccccc1Nc1nc(-c2ccc(F)cc2)c2c(n1)-c1ccccc1OC2
    111, 112
> CCOc1ccc(NC(=O)Cn2c(=O)n(CCCCC(=O)NCCc3ccc(Cl)cc3)c(=O)c3ccccc32)cc1
    108, 114
> N#Cc1cccc(NC(=O)CSc2nc3c(cc2C#N)N2CCC3CC2)c1
    102, 101
> Cc1ccc(-n2nc(C)c3c(C)c(CCC(=O)NCc4ccccc4Cl)c(C)nc32)cc1C
    107, 108
> Clc1cccc(N2CCN(c3ncnc4c3nc3n4CCCC3)CC2)c1
    102, 103
> Cc1cccc(C(=O)NCCc2nc3ccccc3n2Cc2ccccc2Cl)c1
    108, 112
> CCOc1ccccc1NC(=O)Cn1c(=O)nc(-c2ccccc2F)c2cc(Cl)ccc21
    98, 104
> CCOc1ccc(OCC)c(-n2cnnn2)c1
    106, 104
> CCc1ccc(CNC(=O)c2ccc(CS(=O)c3ccc(Br)cc3)o2)cc1 (stereo not given)
    107, 111
> CC(C)c1ccc(NC(=O)CN(C)S(=O)(=O)c2ccc3c(c2)n(C)c(=O)c(=O)n3C)cc1
    100, 102
> COc1ccc(CNC(=O)c2cc(-c3ccc(Br)s3)nc3ccccc23)cc1
    108, 109
> N#C/C(=C\c1ccc(-c2ccc(C(=O)O)cc2)o1)C(=O)Nc1ccccc1C(=O)O
    106, 108
> Cc1ccc(C)c(CN2C(=O)c3ccccc3Sc3ccc(C(=O)NC4CCCC4)cc32)c1
    108, 99
> O=C(NCc1ccc2c(c1)OCO2)c1ccc2c(c1)N(Cc1cccc(Cl)c1)C(=O)c1ccccc1S2=O (stereo not given)
    107, 114
> CN(C)c1ccc(CNC(=O)c2cnc3sc(N4CCOCC4)nn3c2=O)cc1
    104, 107
> COc1ccccc1-c1c(C)nn2c(C(F)(F)F)cc(-c3ccccc3)nc12
    104, 104
> COc1ccc2oc(=O)c(-c3nc(-c4cccs4)no3)cc2c1
    119, 115
> COCCCNC(=O)CSc1nc2cc3c(cc2c(=O)n1CCCCCC(=O)NCc1ccc(OC)cc1)OCO3
    102, 98
> Cc1cccc(-n2c3nc(=O)[nH]c(=O)c-3cc3c(Cl)cccc32)c1C
    106, 108
> COc1ccc(C(=O)N2CCc3cc(OC)c(OC)cc3C2COc2ccccc2OC)cc1 (stereo not given)
    109, 95
> Cc1ccc(C)c(NC(=O)c2cnn(-c3ccc(F)cc3F)c2C2CCNCC2)c1
    100, 105
> CCOc1ccc(S(=O)(=O)N(CC(=O)NCc2ccccc2OC)c2ccccc2)cc1
    106, 104
> Cc1cccc(N2CCN(c3ccc4cc(S(=O)(=O)N5CCC(C)CC5)ccc4n3)CC2)c1C
    110, 105
> Cc1cccc(C)c1OCCn1c(CCNC(=O)C2CCCCC2)nc2ccccc21
    111, 112
> CC(C)NC(=O)C1CCN(C(=O)c2cc3sccc3n2Cc2ccc(Cl)cc2)CC1
    111, 109
> COc1cc(CN2CCc3nc(Nc4ccc5c(c4)OCCO5)ncc3C2)cc(OC)c1OC
    103, 104
> COc1cc(Cl)c(NC(=O)CCS(=O)(=O)c2ccc3c(c2)NC(=O)CO3)c(OC)c1
    105, 100
> Cc1ccc2nc(NC(=O)c3cc(=O)c4cc(C)c(C)cc4o3)sc2c1
    103, 103
> CCc1ccc(CN(Cc2ccco2)C(=O)c2ccccc2Cl)cc1
    110, 109
> CC1=C(C#N)C(NC(=O)c2ccccc2)(C(F)(F)F)C(=O)N1 (stereo not given)
    102, 106

A section of the results above:
Value order: Polio RdRp inh, Polio RdRp inh intensity
> Cc1ccc(C)c(CN2C(=O)c3ccccc3Sc3ccc(C(=O)NC4CCCC4)cc32)c1
    108, 99
> O=C(NCc1ccc2c(c1)OCO2)c1ccc2c(c1)N(Cc1cccc(Cl)c1)C(=O)c1ccccc1S2=O (stereo not given)
    107, 114
> CN(C)c1ccc(CNC(=O)c2cnc3sc(N4CCOCC4)nn3c2=O)cc1
    104, 107
> COc1ccccc1-c1c(C)nn2c(C(F)(F)F)cc(-c3ccccc3)nc12
    104, 104
> COc1ccc2oc(=O)c(-c3nc(-c4cccs4)no3)cc2c1
    119, 115
> COCCCNC(=O)CSc1nc2cc3c(cc2c(=O)n1CCCCCC(=O)NCc1ccc(OC)cc1)OCO3
    102, 98
> Cc1cccc(-n2c3nc(=O)[nH]c(=O)c-3cc3c(Cl)cccc32)c1C
    106, 108
> COc1ccc(C(=O)N2CCc3cc(OC)c(OC)cc3C2COc2ccccc2OC)cc1 (stereo not given)
    109, 95
> Cc1ccc(C)c(NC(=O)c2cnn(-c3ccc(F)cc3F)c2C2CCNCC2)c1
    100, 105
> CCOc1ccc(S(=O)(=O)N(CC(=O)NCc2ccccc2OC)c2ccccc2)cc1
    106, 104
> Cc1cccc(N2CCN(c3ccc4cc(S(=O)(=O)N5CCC(C)CC5)ccc4n3)CC2)c1C
    110, 105
> Cc1cccc(C)c1OCCn1c(CCNC(=O)C2CCCCC2)nc2ccccc21
    111, 112
> CC(C)NC(=O)C1CCN(C(=O)c2cc3sccc3n2Cc2ccc(Cl)cc2)CC1
    111, 109
> COc1cc(CN2CCc3nc(Nc4ccc5c(c4)OCCO5)ncc3C2)cc(OC)c1OC
    103, 104
> COc1cc(Cl)c(NC(=O)CCS(=O)(=O)c2ccc3c(c2)NC(=O)CO3)c(OC)c1
    105, 100
> Cc1ccc2nc(NC(=O)c3cc(=O)c4cc(C)c(C)cc4o3)sc2c1
    103, 103
> CCc1ccc(CN(Cc2ccco2)C(=O)c2ccccc2Cl)cc1
    110, 109
> CC1=C(C#N)C(NC(=O)c2ccccc2)(C(F)(F)F)C(=O)N1 (stereo not given)
    102, 106

Going on with the list:
Value order: Polio RdRp inh, Polio RdRp inh intensity
> CCc1ccc(C(=O)c2cn(CC(=O)Nc3ccc(F)c(F)c3)c3cc(OC)c(OC)cc3c2=O)cc1
    109, 111
> Fc1ccc(-c2cc3ncc4c(n3n2)-c2cc(Cl)ccc2OC4)cc1
    103, 104
> CCOC(=O)CSc1nc2ccc(NC(=O)COc3ccccc3C)cc2s1
    109, 113
> CCOc1ccc(N(C)S(=O)(=O)c2c(C(=O)N3CCC(C)CC3)c(C)n(C)c2C)cc1
    105, 110
> COc1ccc(C)cc1NC(=O)CCS(=O)(=O)c1ccc2c(c1)CC(=O)N2C
    103, 102
> CCOc1ccc(-c2nc3c(c(SCC(=O)N4CCCCC4)n2)Cc2cccc(OC)c2O3)cc1
    105, 108
> Cn1c(=O)n(C)c2cc(N3CCOCC3)c(NS(=O)(=O)c3ccc(C(C)(C)C)cc3)cc21
    104, 107
> COc1ccc(C)cc1NC(=O)c1sc2nc(-c3ccc(F)cc3)cn2c1C
    102, 104
> COc1ccc2c(c1)c1c(c(=O)n(-c3ccccc3)c(=O)n1CC(=O)Nc1ccc(C)c(C)c1)n2C
    101, 106
> CSc1ccc(CNC(=O)C2CCN(c3nc4ccccc4nc3C(F)(F)F)CC2)cc1
    110, 108
> COc1ccc(-c2cn3nc(N4CCC(C(=O)Nc5cccc(C)c5C)CC4)sc3n2)cc1
    106, 114
> COc1ccc(OCC(O)Cn2c(=N)n(CCN3CCCCC3)c3ccccc32)cc1 (stereo not given)
    109, 108
> O=C(CSc1nc2ccccc2n1Cc1cccc(F)c1)NCc1ccccc1
    107, 108
